NPYLR7 agonist: agonists of mosquito NPYLR7 receptor, primary screen, cell-based, Aedes aegypti, calcium fluorescence, mosquito biting behavior | HEK293T NPYLR7/Galpha15, GCaMP6s calcium fluorescence | 270,000 tested, 0.15% active | activation, % at 10 µM; in the data active = activation above about 40%;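 note: 0% = vehicle and 100% = reference agonist at the receptor; some compounds past the cut are filed as inactive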
NPYLR7 agonist max-min: recorded beside NPYLR7 agonist, whose call it bears; activation, %; measured here: Max-Min RFU normalised activation; some inactives read as strong as hits;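 span of the calcium signal over five minutes; 0% = vehicle and 100% = native peptide agonist; compound fluorescence can raise it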
* = called active by the depositor; & = joins results of further samples. A portion of the library, so the mix of outcomes need not match the whole.

SMILES	NPYLR7 agonist	NPYLR7 agonist max-min
CSc1ccc(C(=O)C2CCCN(Cc3ccc4nonc4c3)C2)cc1 (stereo not given)	2.9	-0.6
CC1(C2CC2)NC(=O)N(CN2CC=C(c3ccccc3)CC2)C1=O (stereo not given)	-0.6	-1.2
CC(=O)NC[C@H]1C[C@@H]2CCN1C[C@@H]2c1cc(-c2ccccc2)nc(C)n1	-8.8	-14.9
CCN(CC)P1(=S)OC(c2ccc(F)cc2)=Nc2c1c(C)nn2CCC#N (stereo not given)	-8.7	-13.4
COc1ccc(C2NCCc3[nH]cnc32)c(F)c1 (stereo not given)	-7.9	-9.8
Cc1cccc(-n2c(-c3ccc(F)cc3C(F)(F)F)nc3ccccc3c2=O)c1	4.5	6.2
CCCCS(=O)(=O)N1CCN(CCOC(c2ccccc2)c2ccccc2)CC1	17.5	25.7
CCCOC1CCCN(C2CCN(C)CC2)C1 (stereo not given)	4.4	1.2
COCCNC(=S)NC[C@H]1C[C@@H]2CCN1C[C@@H]2CN1CCC(C)CC1	-7.4	-12.0
O=C1Nc2ccccc2C12CCN(Cc1ccnn1-c1ccccc1)CC2	-4.5	9.7
C#CC1(O)CCC2C3CCC4=CC(=O)CCC4(C)C3CCC21C (stereo not given)	-6.5	-12.0
C1CCC2(C1)NN2CCN1NC12CCCC2 (stereo not given)	-8.2	-17.7
CCCn1c(C)c(C(=O)Nc2ccc(C#N)cc2)c2cc(OC)ccc21	5.4	4.4
COc1ccccc1-c1cc([C@H]2CN3CC[C@H]2C[C@@H]3COC(=O)NC(C)C)n(C)n1	-5.9	-12.4
Cc1ccc(C(C)Nc2ccc(-c3nc(C4CC4)no3)cn2)cn1 (stereo not given)	18.0	5.8
N#Cc1ccc(COC(CN2CCN(C(=O)Cc3ccc(F)cc3)CC2)c2cccc(N3CCCC3)c2)cc1 (stereo not given)	21.9	10.0
O=C(NC1CN2CCC1CC2)c1cc(Br)cc2[nH]cnc12 (stereo not given)	4.6	7.9
COc1ccc(C(c2ccc(OC)cc2)C(Cl)(Cl)Cl)cc1	-7.2	-9.9
COC(=O)C1C(=N)OC(C)=C(C(=O)OCc2ccccc2)C12C(=O)Nc1ccccc12 (stereo not given)	-2.4	-7.8
O=C(COc1ccc(Cl)cc1)N1CCN(C(C(=O)N2CCc3ccccc3C2)C2CCCC2)CC1 (stereo not given)	-2.9	-0.5
CS(=O)(=O)Nc1ccc(Cc2noc(-c3ccc4[nH]cc(CCN)c4c3)n2)cc1	-3.2	-5.7
CCN(CC)C(=O)CN1CCCN(C(=O)COc2ccc(O)cc2)CC1	8.8	6.5
CN(C)C(=O)Oc1ccc2c(=O)c(Oc3ccccc3Br)coc2c1	0.8	-1.7
CC1CCC/C=C/C2CC(O)CC2C(O)/C=C/C(=O)O1 (stereo not given)	15.1	3.5
CC(C)(C)c1cc(C=C(C#N)C#N)cc(Br)c1O	2.0	2.4
CCOC(=O)C1C(=N)Oc2cc(C)n(CC)c(=O)c2C12C(=O)N(Cc1ccccc1)c1ccccc12 (stereo not given)	-1.7	-6.8
COc1ccc(S(=O)(=O)N2CCN(CCOC(c3ccccc3)c3cccc(C(F)(F)F)c3)CC2)cc1OC (stereo not given)	4.5	5.1
CCCc1cc(C(=O)N2CCC3(CCN(C)C3)CC2)ccn1	-15.8	-16.5
Cc1ncc(C(=O)N2C[C@@H](c3ccccc3)[C@@H]3[C@H]2C2CCN3CC2)cn1	5.4	2.4
O=C(CCN1CC=C(c2ccc(O)cc2)CC1)N1CCc2ccccc21	11.0	3.8
O=C(Cc1ccccc1)N1CCN(C(c2ccccc2)c2ccc(Br)cc2)CC1 (stereo not given)	2.7	1.6
CN(Cc1ccccc1)C(=O)c1ccc(Cn2nc(C(=O)Nc3nncs3)c3ccccc32)cc1	1.2	14.1
NCC1(CC(=O)O)CCCCC1	-2.4&0.1	-8.4&-24.6
CCN(CC)c1nc(SC)ncc1CNCCc1cccc(Cl)c1	23.1	21.5
CN1C2CCC1CC1(C2)C(C#N)(C#N)C1(C#N)C#N	-1.2	-6.0
CCc1nnc(CN2CCC3(CC2)C(=O)Nc2ccccc23)o1	0.3	-1.1
C/C=C1/C[C@@H](C)[C@](O)(CO)C(=O)OCC2=CCN3CC[C@@H](OC1=O)[C@@H]23	-4.2	-6.2
OCc1csc(-c2cccc3c2CCNC3)n1	0.7	-6.5
CCOC(=O)C(O)(c1ccc(N(C)C(=O)COc2ccccc2)cc1)C(F)(F)F (stereo not given)	2.7	0.8
CC(C)(C)c1nn(-c2cccc(Cl)c2)c2c1C(c1ccsc1)SCC(=O)N2CC(=O)O (stereo not given)	2.2	-2.2
CCN(CC)P1(=S)C(=C2N(C)c3ccccc3C2(C)C)C=NN1c1ccccc1 (stereo not given)	0.7	6.9
CCOc1ccccc1CNCc1cnc(SC)nc1N(C)C1CCN(C)CC1	21.7	22.6
CCc1ccc2occ(CC(=O)N3CCN(C)C4(CCN(C)CC4)C3)c2c1	-1.4	-8.1
Cc1nc(C(F)(F)F)nc(N2CCC3(CCN(C)C3)CC2)c1C	10.3	7.3
CC(C)c1ccccc1OCc1nc(CN(CCN2CCCCC2)C(=O)Cc2ccccc2)cs1	5.3	18.1
CC(C)(C)n1ncc2c1NC(N1CCN(CC(F)F)CC1)=NC2	3.9&1.7	0.5&-0.7
CC(=O)N1CCN2C[C@@H](c3ccccc3)[C@H](CO)[C@H]2C1	8.7	20.7
COc1ccccc1[C@@H]1CN(C(=O)c2occc2C)[C@@H]2C3CCN(CC3)[C@@H]21	0.8	-0.5
CC1=C(C(=O)OC(C)C)C2(C(=O)Nc3ccccc32)C(C#N)C(=N)O1 (stereo not given)	14.4	14.9
O=C(NCCCN1CCOCC1)C(C1CCCC1)N1CCN(C(=O)COc2ccccc2)CC1 (stereo not given)	-21.3	-14.6

An excerpt of these results, comma-delimited.
structure,NPYLR7 agonist,NPYLR7 agonist max-min
COc1ccc(C(c2ccc(OC)cc2)C(Cl)(Cl)Cl)cc1,-7.2,-9.9
COC(=O)C1C(=N)OC(C)=C(C(=O)OCc2ccccc2)C12C(=O)Nc1ccccc12 (stereo not given),-2.4,-7.8
O=C(COc1ccc(Cl)cc1)N1CCN(C(C(=O)N2CCc3ccccc3C2)C2CCCC2)CC1 (stereo not given),-2.9,-0.5
CS(=O)(=O)Nc1ccc(Cc2noc(-c3ccc4[nH]cc(CCN)c4c3)n2)cc1,-3.2,-5.7

(list continues)
SMILES	NPYLR7 agonist	NPYLR7 agonist max-min
CC12CN3CCN(CC(C3)C1(O)CN)C2 (stereo not given)	-1.7	-1.7
O=c1oc2ccccc2c(O)c1C1c2ccccc2Nc2c1c(=O)oc1ccccc21 (stereo not given)	3.4	-0.2
OC12CCC(CC1)N(Cc1ccccn1)C2CN1CCOCC1 (stereo not given)	-3.7	5.8
COC(=O)C1C(=N)Oc2cc(C)n(Cc3ccccc3)c(=O)c2C12C(=O)N(C)c1ccccc12 (stereo not given)	-0.7	-2.9
COC(=O)C1C2c3ccccc3OC1(C)N=c1s/c(=C/c3ccc(OC)cc3)c(=O)n12 (stereo not given)	3.7	3.2
CC(C)NC(=O)N1C[C@@H]2C[C@H](C1)c1ccc(/C=C/c3ccc(Cl)cc3)c(=O)n1C2	-10.4	-15.4
O=P(Nc1ccccc1Cl)(c1ccccc1)c1nc2c(s1)CCCC2 (stereo not given)	0.4	7.2
CC(C)CC12CN3CCN(CC(C3)/C1=N\O)C2	-8.5	-11.9
O=C1OC2(CCN(Cc3cc4n(n3)CCNC4)CC2)c2ccccc21	21.5	5.9
COc1ccc(-n2nc(-c3ccccc3)c3c2N(CC(=O)O)C(=O)CSC3c2ccc(F)cc2F)cc1 (stereo not given)	-5.6	-13.4
CC(C)(O)[C@@H]1[C@H]2OC(=O)[C@@H]1[C@]1(O)C[C@H]3O[C@]34C(=O)O[C@H]2[C@]14C	5.0	-12.1
CCc1ccc(N2C(=O)/C(=C/c3cc(C)n(-c4ccc(C(=O)O)cc4)c3C)C(=O)NC2=S)cc1	19.9	12.9
COc1ccccc1[C@@H]1CN(C(=O)Cn2nccc2C)[C@@H]2C3CCN(CC3)[C@@H]21	0.9	12.3
Cc1n[nH]c(C)c1CC(=O)N1CCN(Cc2ccsc2)CC1	4.1	2.9
Cc1cc(NC(=O)CN2C[C@@H](c3ccccc3)[C@@H]3[C@H]2C2CCN3CC2)no1	4.3	15.3
CCc1cccc(CC)c1N(COC)C(=O)CCl	-6.8	-12.1
O=C(O)CCC1NCC2CC1CN1CCCCC21 (stereo not given)	-5.2	-11.2
CCN1CCN(C(=O)Cc2csc3nc(-c4ccc(Cl)cc4)cn23)CC1	0.2	-1.4
CC(=O)c1c[nH]c(C(=O)C(Cl)(Cl)Cl)c1	-0.8	-3.5
Cc1cc(NC(=O)c2cccn(Cc3cccc(F)c3)c2=O)c2ccccc2n1	1.4	-1.3
Cc1cc(C)cc(CN2CCC3(CCNCC3)C2)c1	23.8	13.8
O=C(CCc1cc(=O)[nH]o1)N1C[C@H](c2ccccc2)[C@@H]2[C@H]1C1CCN2CC1	4.7	1.1
Cn1c(C(=O)N2CCC3(CC2)OCCO3)cc2c(=O)n3ccccc3nc21	0.8	2.8
CC1(C)CC(C)(O)P(C)(=O)O1 (stereo not given)	0.1	-2.2
O=C(O)C1C2CCC(O2)C1C(=O)O (stereo not given)	-4.0	-11.5
C#CCN(C)S(=O)(=O)c1ccc(Cn2nc(C(=O)NCc3cnc(C)cn3)c3ccccc32)cc1	18.5	17.7
COCCNC(C)c1nc2ccccc2c(=O)n1-c1cc(C)ccc1C (stereo not given)	-16.9	-12.9
CN(C)C(=O)Oc1ccc(OCc2n(C)cc[n+]2C)cc1	9.2	11.2
C[C@H]1O[C@@H](OC2CC[C@]3(C=O)[C@H]4CC[C@]5(C)[C@@H](C6=CC(=O)OC6)CC[C@]5(O)[C@@H]4CC[C@]3(O)C2)C[C@H](O)[C@@H]1O (stereo not given in full)	1.7	-1.3
CCn1c(C2CCCNC2)nn(CC(F)F)c1=O (stereo not given)	-1.0	-5.1

Shown with bars between the fields: 23 of the compounds above
SMILES | NPYLR7 agonist | NPYLR7 agonist max-min
CSc1ccc(C(=O)C2CCCN(Cc3ccc4nonc4c3)C2)cc1 (stereo not given) | 2.9 | -0.6
CC1(C2CC2)NC(=O)N(CN2CC=C(c3ccccc3)CC2)C1=O (stereo not given) | -0.6 | -1.2
CC(=O)NC[C@H]1C[C@@H]2CCN1C[C@@H]2c1cc(-c2ccccc2)nc(C)n1 | -8.8 | -14.9
CCN(CC)P1(=S)OC(c2ccc(F)cc2)=Nc2c1c(C)nn2CCC#N (stereo not given) | -8.7 | -13.4
COc1ccc(C2NCCc3[nH]cnc32)c(F)c1 (stereo not given) | -7.9 | -9.8
Cc1cccc(-n2c(-c3ccc(F)cc3C(F)(F)F)nc3ccccc3c2=O)c1 | 4.5 | 6.2
CCCCS(=O)(=O)N1CCN(CCOC(c2ccccc2)c2ccccc2)CC1 | 17.5 | 25.7
CCCOC1CCCN(C2CCN(C)CC2)C1 (stereo not given) | 4.4 | 1.2
COCCNC(=S)NC[C@H]1C[C@@H]2CCN1C[C@@H]2CN1CCC(C)CC1 | -7.4 | -12.0
O=C1Nc2ccccc2C12CCN(Cc1ccnn1-c1ccccc1)CC2 | -4.5 | 9.7
C#CC1(O)CCC2C3CCC4=CC(=O)CCC4(C)C3CCC21C (stereo not given) | -6.5 | -12.0
C1CCC2(C1)NN2CCN1NC12CCCC2 (stereo not given) | -8.2 | -17.7
CCCn1c(C)c(C(=O)Nc2ccc(C#N)cc2)c2cc(OC)ccc21 | 5.4 | 4.4
COc1ccccc1-c1cc([C@H]2CN3CC[C@H]2C[C@@H]3COC(=O)NC(C)C)n(C)n1 | -5.9 | -12.4
Cc1ccc(C(C)Nc2ccc(-c3nc(C4CC4)no3)cn2)cn1 (stereo not given) | 18.0 | 5.8
N#Cc1ccc(COC(CN2CCN(C(=O)Cc3ccc(F)cc3)CC2)c2cccc(N3CCCC3)c2)cc1 (stereo not given) | 21.9 | 10.0
O=C(NC1CN2CCC1CC2)c1cc(Br)cc2[nH]cnc12 (stereo not given) | 4.6 | 7.9
COc1ccc(C(c2ccc(OC)cc2)C(Cl)(Cl)Cl)cc1 | -7.2 | -9.9
COC(=O)C1C(=N)OC(C)=C(C(=O)OCc2ccccc2)C12C(=O)Nc1ccccc12 (stereo not given) | -2.4 | -7.8
O=C(COc1ccc(Cl)cc1)N1CCN(C(C(=O)N2CCc3ccccc3C2)C2CCCC2)CC1 (stereo not given) | -2.9 | -0.5
CS(=O)(=O)Nc1ccc(Cc2noc(-c3ccc4[nH]cc(CCN)c4c3)n2)cc1 | -3.2 | -5.7
CCN(CC)C(=O)CN1CCCN(C(=O)COc2ccc(O)cc2)CC1 | 8.8 | 6.5
CN(C)C(=O)Oc1ccc2c(=O)c(Oc3ccccc3Br)coc2c1 | 0.8 | -1.7

(further entries)
SMILES	NPYLR7 agonist	NPYLR7 agonist max-min
Cc1[nH]c2ccccc2c1C(=O)C(=O)N1CCC2(CC1)OCCO2	-3.9	-5.1
CC(=O)c1sc(N2CCN(C)CC2)nc1C	1.9	3.0
NC1(c2ccccc2)CCC1	1.9	8.5
CCOC(=O)N1CCN(C2CCCN(C(=O)Cc3cc(OC)ccc3OC)C2)CC1 (stereo not given)	-1.4	-2.1
O=C(COc1ccc(Cl)cc1)N1CCCC(N2CCN(c3ccc(F)cc3)CC2)C1 (stereo not given)	-1.7	-1.9
O=[N+]([O-])c1ccc2nc(N3CCNCC3)ccc2c1	2.4	-22.5
